NS1 inh = qHTS Assay for Inhibitors of Influenza NS1 Protein Function. S. cerevisiae slowed by influenza A NS1, growth recovery by OD600. Potency, µM (top dose mostly 46.1 µM), without a hit: at the top dose activity, positive = more growth. hit rate 0.4% among 270,000. AID 2326, 2010; active means well fitted rising curve with a large enough effect; inconclusive means small, poorly fitted or top-dose-only effect; inactive means no such curve, though single readings can be large or run the other way; also: nearly all actives have a fitted effect of over 50% in size
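S. cerevisiae expressing influenza A NS1, grown in glucose, washed, then diluted 1:100 into pH 6.0 -URA galactose medium with 23 nl compound. Growth recovery read as OD600; NS1-free strain serves as control.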
MARV entry inh = qHTS for inhibitors of binding or entry into cells for Marburg Virus; Potency, µM (doses to about 37.8 µM), inactives show top-dose activity change, negative = inhibition, hits mostly inhibitors; hit rate 1.8% among 300,000; AID 540276, 2011; Marburg virus pseudotyped entry inhibition, cell reporter; control for the full effect not named in the record; about a third of the inactives were read at about 46 µM; active = well fitted inhibition curve with a large enough effect; inconclusive = small, poorly fitted or top-dose-only effect, or effect the other way; inactive = flat fitted curve, though single readings scatter; tested in HEK293 cells; about a fifth of its hits are not listed in these tables; also: % is scaled to controls: 0 for no effect and ±100 for the full control effect; luciferase read-out
Cruzain inh Det = qHTS Assay for Promiscuous and Specific Inhibitors of Cruzain (with detergent). Cruzipain (Trypanosoma cruzi), P25779. purified cruzain, Z-FR-AMC fluorescence, 0.01% Triton. Potency, µM, for the others: max response, negative = inhibition, actives largely listed as inhibitors. hit rate 0.43% among 200,000. AID 1478, 2009;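 also: plate controls were neutral wells for no effect and buffer without enzyme for full effect; nearly all actives have a fitted effect of over 40% in size; top concentration of the series not given in the record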
Target sequence (P25779 123-467 limits assumed): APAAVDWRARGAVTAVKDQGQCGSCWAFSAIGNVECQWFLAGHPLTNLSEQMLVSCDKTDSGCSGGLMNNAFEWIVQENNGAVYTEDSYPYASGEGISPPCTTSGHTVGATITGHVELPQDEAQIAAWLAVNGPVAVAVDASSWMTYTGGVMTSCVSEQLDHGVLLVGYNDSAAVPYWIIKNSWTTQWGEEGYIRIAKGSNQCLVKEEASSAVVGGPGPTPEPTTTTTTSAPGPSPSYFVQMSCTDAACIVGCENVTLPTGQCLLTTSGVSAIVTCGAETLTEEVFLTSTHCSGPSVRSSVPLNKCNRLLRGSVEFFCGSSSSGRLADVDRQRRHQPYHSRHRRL
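Purified cruzain (1.5 nM final) was preincubated with compounds for 15 min at room temperature in 100 mM sodium acetate pH 5.5, 5 mM DTT, 0.01% Triton X-100. Reaction started with 2 uM Z-FR-AMC; AMC fluorescence change over 60 s gave activity.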
Lassa entry inh = qHTS for Inhibitors of binding or entry into cells for Lassa Virus | hit rate 1.2% among 300,000 | Lassa virus pseudotype entry inhibition, cell reporter; control for the full effect not named in the record | Potency, µM (titrated, usually from 37.9 µM), for inactives: at the top dose activity change, negative = inhibition, usual class: inhibitors | AID 540256, 2011; active means well fitted inhibition curve with a large enough effect; inconclusive means small, poorly fitted or top-dose-only effect, or effect the other way; inactive means flat fitted curve, though single readings scatter; tested in HEK293 cells; also: % is scaled to controls: 0 for no effect and ±100 for the full control effect; nearly all actives have a fitted effect of over 50% in size; luciferase read-out
RE007 growth inh = qHTS Assay for Inhibitors of the HIV-1 protein Vpr | AID 651644, 2012 | Potency, µM (doses to about 92.2 µM), for the others: top-dose activity change, negative = less growth | S. pombe RE007 Vpr strain, BacTiter-Glo ATP luminescence, 24 h; control for the full effect not named in the record | hit rate 0.21% among 360,000; active = well fitted falling curve with a large enough effect; inconclusive = small, poorly fitted or top-dose-only effect; inactive = no such curve, though single readings can be large or run the other way;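 also: % is scaled to controls: 0 for no effect and ±100 for the full control effect; nearly all actives have a fitted effect of over 50% in size; the assay follows cell death caused by Vpr and the record does not say whether a fall means rescue or toxicity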
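Fission yeast strain RE007, carrying one chromosomally integrated HIV-1 vpr copy, was seeded at OD 0.01 in PMG+AL medium with 23 nL pinned compound. After 24 h at 30 °C and 99% humidity, viability was read by BacTiter-Glo luminescence.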
StopGo reporter = High Throughput Screening for Foot and Mouth Disease Virus Antivirals; Potency, µM (highest dose often 57.9 µM), for the others: at the top dose signal change, negative = less light; hit rate 1.2% among 410,000; AID 1159524, 2015; human cells with a luciferase reporter of 2A StopGo recoding; control for the full effect not named in the record; active = well fitted falling curve with a large enough effect; inconclusive = small, poorly fitted or top-dose-only effect; inactive = no such curve, though single readings can be large or run the other way; tested in HEK293T cells; also: % is scaled to controls: 0 for no effect and ±100 for the full control effect; nearly all actives have a fitted effect of over 45% in size; luciferase light after 4 h
SARS PLpro yeast = qHTS of Yeast-based Assay for SARS-CoV PLP. Potency, µM (highest dose often 32.9 µM), for the others: at the top dose activity, positive = growth rescue. hit rate 0.19% among 330,000. S. cerevisiae expressing SARS-CoV PLpro, growth rescue; control for the full effect not named in the record. AID 485353, 2010; active means well fitted rising curve with a large enough effect; inconclusive means small, poorly fitted or top-dose-only effect; inactive means no such curve, though single readings can be large or run the other way; also: 0% is about no effect; nearly all actives have a fitted effect of over 55% in size; growth read by luminescence after 48 h
Cruzain inh noDet = qHTS Assay for Promiscuous and Specific Inhibitors of Cruzain (without detergent) | purified cruzain, Z-FR-AMC fluorescence, no detergent | Potency, µM, for inactives: max response, negative = inhibition, usual class: inhibitors | hit rate 2.3% among 200,000 | AID 1476, 2009;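 also: plate controls were enzyme without inhibitor for no effect and buffer without enzyme for full effect; nearly all actives have a fitted effect of over 40% in size; top concentration of the series not given in the record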
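Detergent-free condition (0.00005% Triton X-100) in acetate buffer pH 5.5 with DTT. 1.5 nM enzyme and compound were pre-mixed 15 min, then 2 uM Z-FR-AMC substrate added; reaction progress from fluorescence change between first and third reads (60 s).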
Numbers without * were called inactive; ? = inconclusive; / = not tested or not shown; & = joins results of further samples; [ ] = dose if it differs, or a comment. Unless noted, calls follow the shape of the dose curve; as a rule, active = well fitted curve in the direction sought with a large enough effect; inconclusive = small, poorly fitted or top-dose-only effect, or another doubt; inactive = no such curve, though single readings can be large; an effect the other way counts as inactive or inconclusive. Potency is read from the fitted curve at half-maximal effect.

SMILES	NS1 inh	MARV entry inh	Cruzain inh Det	Lassa entry inh	RE007 growth inh	StopGo reporter	SARS PLpro yeast	Cruzain inh noDet
CCn1c(SCc2cccc(Br)c2)nnc1-c1nonc1NC(C)=O	/	3%[46.1 µM]	-6.7%	9%[46.1 µM]	/	-28%	/	-5%
Cc1nn(C)c(C(=O)N/N=C/c2ccc(C(F)(F)F)cc2)c1[N+](=O)[O-]	6%	?	-12%	1%	7%	-24%	-8%	-8%
CCOc1ccc2c(c1)C(C)=CC(C)(C)N2C(=O)Nc1ccccc1	4%	4%	0.3%	9%	?	23%	4%	0%
Cc1ccc(-n2ccnc(SCC(=O)NCCc3ccccc3)c2=O)cc1F	/	2%[46.1 µM]	/	6%	-13%	-13%	-8%	/
CCOc1ccc(-n2cc(C(=O)Nc3ccc(Cl)cn3)c3cc(OC)c(OC)cc3c2=O)cc1	16%	-2%	0.8%	-25%	-2%	-1%	6%	13%
COc1ccc(OC)c(C(C(=O)NC2CCCCC2)N(Cc2ccco2)C(=O)c2ccccn2)c1 (centres undefined)	-7%	-2%	/	-26%	-3%	6%	3%	/
Cc1cccc(CSc2nc3c([nH]c4ccccc43)c(=O)n2C)c1	/	/	-0.4%	?	/	-1%	/	-15%
COc1ccccc1CNCC(=O)Nc1ccc(N2CCOCC2)cc1	7%	?	-3.4%	-27%	1%	-21%	-19%	8%
COC(=O)c1ccccc1N(C)S(=O)(=O)c1cc2c(cc1C)OCC(=O)N2	/	?	/	-15%[46.1 µM]	-12%	19%	-2%	/
O=C1CSC(=Nc2ccccc2)N1Cc1ccccc1	/	8%[46.1 µM]	/	-2%	8%	-21%	-3%	/
Cc1cccc(C(=O)c2cn[nH]c2-c2ccc(C)cc2O)c1	-26%	-1%	/	-1%	-9%	-11%	1%	/
CCOC(=O)N(C)c1ccc(C(O)(C(=O)OC)C(F)(F)F)cc1 (centres undefined)	-2%	11%	-1.0%	-19%	-10%	-19%	-10%	11%
COc1ccc(N2C(=O)CSC2c2ccccc2[N+](=O)[O-])cc1 (centres undefined)	-7%	4%[46.1 µM]	/	?	-2%	-9%	0%	/
Cc1ccc2oc(=O)c3cnn(CC(=O)NC4CCN(Cc5ccccc5)CC4)c3c2c1	-2%	/	-2.0%	/	2%	?	4%	-2%
CCCCCCN=Cc1c(O)n(C)c(=O)n(C)c1=O	-8%	-33%	3.8%	10%	9%	0%	0%	5%
COCCn1nnnc1SCC(=O)NCc1ccc2c(c1)OCO2	1%	23%[46.1 µM]	/	-15%	-25%	2%	1%	/
COC(=O)c1ccccc1S(=O)(=O)N1CCn2cccc2C1C (centres undefined)	18%	-3%	/	17%	3%	-8%	-3%	/
O=C(Nc1ccccc1F)C1CCCC1	/	10%	/	15%	5%	-1%	/	/
CCOC(=O)c1ccc2nc(NC(C)=O)sc2c1	/	?	/	?	2%	24%	-2%	/
COc1ccc(C2c3cccn3CCN2S(=O)(=O)c2ccc([N+](=O)[O-])cc2)cc1 (centres undefined)	/	/	-3.2%	-4%[46.1 µM]	/	-30%	/	25µM*
CCCC(=O)C1C(=O)CC(CC(C)SCC)CC1=O (centres undefined)	-91%	1%	0.2%	?	?	/	-3%	-8%
O=C(COC(=O)C1CC(O)CN1S(=O)(=O)c1ccc(Cl)cc1)c1cccc(Cl)c1 (centres undefined)	-12%	4%	-9.0%	-9%	-2%	31%[activator]	-9%	?
COC(=O)[C@@]1(C#N)[C@@H]2C=CC(C(C)=O)=CN2[C@@H](C(N)=O)[C@@H]1c1ccc(F)cc1	7%	?	/	-1%	13%	-13%	1%	/
COc1ccc(NC(=O)CN(C)C(=O)Cc2c(C)nc3ccccc3c2C)cc1	/	-12%[46.1 µM]	/	?	-16%	-22%	4%	/
O=C(Nc1ccc(Br)cc1)C1CC(c2c(F)cccc2Cl)=NO1 (centres undefined)	-30%	/	/	/	-1%	39%[activator]	-4%	/
Remaining list, next part:
SMILES	NS1 inh	MARV entry inh	Cruzain inh Det	Lassa entry inh	RE007 growth inh	StopGo reporter	SARS PLpro yeast	Cruzain inh noDet
COc1cccc(N2CCN(C(=O)CN3CCSc4ccccc43)CC2)c1	/	/	-6.2%	-29%[46.1 µM]	/	?	/	3%
Cc1nn(Cc2ccc(Cl)cc2)c(C)c1NC(=O)c1cc(-c2ccco2)on1	1%	-6%	0.5%	/	2%	?	5%	-3%
O=C(CCCc1ccccc1)Nc1ccccc1C(F)(F)F	-18%	5%[46.1 µM]	/	?	-4%	24%	-2%	/
Cc1ccc(C)c(CNC(=O)C2CCN(c3nc4ccccc4nc3C(F)(F)F)CC2)c1	/	/	1.6%	10%[46.1 µM]	/	-8%	/	-7%
CN1C(=O)/C(=C/c2ccccc2F)Sc2ccc(C(=O)NCC3CCCO3)cc21 (centres undefined)	-6%	/	/	/	24%	-25%	-7%	/
O=C(Nc1ccc(Cl)cn1)Nc1ccc(Cl)cn1	/	5%[46.1 µM]	/	-1%	-3%	26%	1%	/
Cc1cc(Nc2ccccc2)nn1C(=O)c1ccc(Cl)cc1	-12%	0%	0.6%	7%	2%	78%[activator]	-56%	7%
Cc1cc(C)nc(NC(=O)CCN2C(=O)c3ccccc3S2(=O)=O)n1	/	?	/	-2%	-9%	-19%	0%	/
COc1cc(-c2nc(Cn3nnc(C(=O)Nc4cc(C)cc(C)c4)c3C)c(C)o2)cc(OC)c1OC	/	?	-0.4%	?	/	-19%	/	?
CC(NC(=O)CN1CCCC1)c1ccccc1 (centres undefined)	-2%	?	/	9%	2%	-10%	3%	/
CCCn1nc(NC(=O)C(C)(C)C)c2cc3cc(OC)ccc3nc21	-2%	/	/	/	-1%	-17%	-2%	/
CCN(Cc1ccccc1)C(=O)c1cc2c(=O)[nH]c3ccc(C)cc3c2s1	/	9%[46.1 µM]	-1.4%	/	/	-4%	/	-2%
C[C@@H](C[C@H](N)C(=O)O)C(=O)O	-2%	/	-0.1%	/	/	11%	/	3%
Cc1ccc(-c2csc(N/N=C/c3ccco3)n2)c(C)c1	10%	1.8µM*	-5.3%	3.3µM*	-21%	-6%	20%	?
CCCCNS(=O)(=O)c1ccc(NC(=O)c2c(-c3ccccc3)noc2C)cc1	/	?	-1.2%	-14%[46.1 µM]	/	-15%	/	-7%
CCCNC(=O)c1ccc(S(=O)(=O)c2ccc(OC)cc2)c([N+](=O)[O-])c1	-7%	?	/	?	-7%	?	-3%	/
CCN(CC)CCCn1c2c(c(SCC(=O)Nc3ccc(OC(F)(F)F)cc3)nc1=O)CCC2	/	?	/	?	-1%	-22%	-6%	/
Cc1ccc(Nc2nc3ccccc3n3cnnc23)c(Cl)c1	-3%	/	/	/	20%	-7%	-1%	/
O=C(O)C1(P(=O)(c2ccccc2)c2ccccc2)CCC1	4%	2%	1.6%	5%	1%	0%	0%	-4%
N/C(=N\OC(=O)Cc1cccs1)c1ccc([N+](=O)[O-])cc1	-9%	-1%	-3.1%	?	-10%	37%[activator]	-48%	10%
O=C1c2cccc(OCC(=O)N3CCCc4ccccc43)c2CCN1Cc1ccc(F)cc1	14%	?	-3.8%	?	-11%	20µM*	-11%	3%
CCC1C(=O)NCCN1C(=O)c1ccc2nc(Cc3ccc(OC)cc3)oc2c1 (centres undefined)	11%	/	/	/	-14%	17%	17%	/
c1ccc(C(=NNc2nc3ccccc3s2)c2ccccn2)cc1	/	?	/	13µM*	27%	?	/	/
C(=N\n1cnnc1)/c1ccc(-c2ccccc2)cc1	-58%	-1%	-2.5%	11%	-11%	7%	-20%	-4%
Cc1ccc(NC(=O)CN(CCc2ccccc2)S(=O)(=O)c2ccccc2)c(C)c1	/	/	-8.5%	-29%[46.1 µM]	/	-7%	/	9%
Carrying on:
SMILES	NS1 inh	MARV entry inh	Cruzain inh Det	Lassa entry inh	RE007 growth inh	StopGo reporter	SARS PLpro yeast	Cruzain inh noDet
NC(=O)CC(NC(=O)c1ccccc1)c1ccc(NC2CCN(Cc3ccccc3)CC2)c([N+](=O)[O-])c1 (centres undefined)	-4%	/	/	/	7%	-19%	-7%	/
Nc1nonc1C(=O)NCCNC(=O)c1ccccc1F	-4%	?	-0.5%	4%	3%	-25%	13%	9%
COc1cc(NC(=O)c2cc(OC)c(OC)c(OC)c2)c2ncccc2c1	/	?	/	?	0%	-9%	/	/
COc1cccc2sc(NNC(=O)C3=COCCO3)nc12	/	30%	/	?	-1%	56%[activator]	21%	/
Cc1cccc(NC(=O)c2cc(S(=O)(=O)N3CCCCC3)c[nH]2)c1C	14%	/	-3.0%	-1%[46.1 µM]	3%	-17%&-21%	3%	-1%
CCCN1CCC[C@H](c2cccc(O)c2)C1	-6%	?	-2.0%	3%	-4%[18.4 µM]	-6%	/	-5%
Cc1ccc(CSC2=NCCN2C(=O)C2CC2)cc1	5%	-13%[46.1 µM]	3.8%	-34%	-20%	11%	1%	-6%
CC(C)(C)CC(=O)Nc1ccccc1N1CCN(c2ccc(F)cc2)CC1	-65%	7.9µM*	/	?	-4%	?	-4%	/
COc1ccc2cc3cc(C(=O)N4CCCCCC4)oc3nc2c1	-15%	/	/	/	0%	-17%	-23%	/
CN1CCN(S(=O)(=O)c2ccc(NN)nc2)CC1	/	?	/	-2%	-5%	-13%	0%	/
CC(C)Cn1c(-c2cccnc2)nc2c1c(=O)[nH]c(=O)n2CC(C)C	1%	/	/	/	8%	-1%	0%	/
Cc1nc2cc(C(=O)O)ccc2s1	-5%	?	1.5%	?	24%	53%[activator]	8%	-11%
CN(c1cccc(NC(=O)CN2C(=O)c3ccccc3S2(=O)=O)c1)S(C)(=O)=O	2%	?	1.9%	-25%	-7%	-2%	6%	1%
O=C(O)c1ccccc1SSc1ccccc1C(=O)O	0%	20%[46.1 µM]	/	-7%[46.1 µM]	-5%	4%	1%	/
O=C(Nc1ncccc1Cl)c1cccc(F)c1	6%	28%	1.2%	0%	16%	25%	5%	1%
CCOC(=O)CSc1nnc(CNC(=O)c2ccc(OC)cc2OC)n1-c1ccc(OC)cc1	-8%	-3%	3.2%	-6%	-7%	-11%	6%	9%
Cc1nn(-c2ccccc2)c(Cl)c1C(=O)NCC(C)C	-11%	1%	2.4%	?	-9%	10%	12%	-10%

Compound activity: PubChem, National Center for Advancing Translational Sciences (NCATS)
